HSV replic up: HSV replication enhancement | HSV replication augmentation in cells, fold increase | maximum fold increase | actives 0.005% (n = 220,000);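 active means peak rise of 1.5-fold or more in the series; inconclusive means self-fluorescent or not available for retest; tested in PC3 cells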;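 further: first round at 10 µM; read as green reporter fluorescence; hits show the peak of a series up to 25 µM; 1 = signal of infected wells without compound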
GALR2 agonist: activates the human galanin receptor 2 | O43603 | GALR2-expressing cells, agonist activation read-out | activation, %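 (tested at 5 µM)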 | actives 0.48% (n = 140,000);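 active means above mean plus 3 SD of all compounds, about 5% in these data, not always enough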;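 further: 0% = vehicle buffer wells and 100% = reference agonist at full effect; tested in CHO reporter cells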
RGS16-Gao: RGS16-Galphao interaction regulator (human); O15492+P09471; bead-based flow cytometry RGS16-Galphao binding, fluorescence; actives lie on both sides; binding response (% of control), % at 10 µM; actives 0.38% (n = 220,000);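 active means below 25% or above 175%, edge rows of some plates excepted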;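 further: Galphao activated by GDP with aluminum fluoride before binding; 100% = wells without compound and 0% = beads without RGS; some results beyond the cut were filed as inactive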
PKD1 inh: PKD1 (human) kinase inhibition | PKD1 kinase fluorescence polarization assay | inhibition, %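 (about 10 µM by stock and volumes)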 | actives 0.056% (n = 200,000) | AID 797;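 active means inhibition of 50% or more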;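 further: controls were vehicle for no effect and a reference inhibitor for full effect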
Target sequence (Q15139 whole entry, looked up): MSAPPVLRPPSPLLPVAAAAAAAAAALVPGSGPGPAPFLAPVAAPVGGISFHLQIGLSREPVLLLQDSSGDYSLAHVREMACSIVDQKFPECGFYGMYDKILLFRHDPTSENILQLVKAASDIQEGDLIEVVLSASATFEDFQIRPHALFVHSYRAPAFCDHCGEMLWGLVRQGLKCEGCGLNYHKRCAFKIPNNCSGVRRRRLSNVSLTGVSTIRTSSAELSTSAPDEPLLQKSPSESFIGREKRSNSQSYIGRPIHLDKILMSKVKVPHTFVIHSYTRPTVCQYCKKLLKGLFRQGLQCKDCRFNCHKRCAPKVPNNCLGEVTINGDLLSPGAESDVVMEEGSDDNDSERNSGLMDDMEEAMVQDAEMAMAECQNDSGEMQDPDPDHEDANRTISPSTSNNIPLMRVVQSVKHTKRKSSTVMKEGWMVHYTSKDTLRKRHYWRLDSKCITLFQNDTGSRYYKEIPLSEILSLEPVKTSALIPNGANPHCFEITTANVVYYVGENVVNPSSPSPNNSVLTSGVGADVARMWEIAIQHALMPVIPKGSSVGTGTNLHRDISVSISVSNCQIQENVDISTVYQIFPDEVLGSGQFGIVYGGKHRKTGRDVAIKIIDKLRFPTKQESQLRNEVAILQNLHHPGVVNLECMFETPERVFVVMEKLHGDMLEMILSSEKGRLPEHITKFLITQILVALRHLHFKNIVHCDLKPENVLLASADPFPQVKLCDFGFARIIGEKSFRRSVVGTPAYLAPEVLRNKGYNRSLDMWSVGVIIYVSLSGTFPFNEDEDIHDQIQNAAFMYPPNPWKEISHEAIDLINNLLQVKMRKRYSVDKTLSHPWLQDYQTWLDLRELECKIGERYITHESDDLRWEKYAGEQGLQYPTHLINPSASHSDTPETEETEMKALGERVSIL
INS promoter inh: TRM-6 insulin promoter activity inhibition; actives 0.9% (n = 130,000); inhibition, % at 2 µM; TRM-6 cells (human fetal islet line), insulin promoter-eGFP reporter, imaging; reporter expression induced with tamoxifen;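 active means inhibition above the mean plus 3 SD, with well images judged a real hit on visual review, cut at about 60% in these data, passing the limit was not always enough; inconclusive means inhibition over the cutoff but images rejected on review; inactive means inhibition not above the cutoff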
INS promoter inh cell count: also measured in INS promoter inh; calls as there; normalized cell count, %; measured here: cell count, toxicity; reference of the scale not given here;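 cells exposed to compound for 48 h; stained nuclei by imaging scaled within each plate; lower means fewer cells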
HSV replic up primary fold: second read-out of HSV replic up, no call of its own (marks repeat the call); fold increase; compound at 10 µM; measured here: primary screen fold increase 10 uM; tested in PC3 cells;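 GFP signal in the first replicate; 1 = infected wells without compound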
* marks the source's active call; other numbers are inactive results; i = inactive; ? = inconclusive; . = not tested or not shown.

SMILES | HSV replic up | HSV replic up primary fold | GALR2 agonist | RGS16-Gao | PKD1 inh | INS promoter inh | INS promoter inh cell count
CCOC(=O)C(=NC(C)CC)NNc1cccc(C(F)(F)F)c1 (stereo not given) | i | 0.98 | 0.2 | 68 | -1 | 54 | 92
CCC(=O)Nc1cccc(NC(=O)CSc2nnc(-c3ccc(NS(C)(=O)=O)cc3)n2C)c1 | . | . | 0.7 | 97 | -13 | -43 | 108
Cn1/c(=N/NC(=O)c2ccccc2F)sc2ccccc21 | i | 1 | . | 112 | 6 | 55 | 46
COc1ccc(C(=O)c2c(O)cc(-c3ccc(OC)cc3)oc2=O)cc1 | i | 0.85 | -0.1 | 108 | 3 | 25 | 105
CCOC(=O)Cc1csc(NS(=O)(=O)c2ccc(C(F)(F)F)cc2)n1 | i | 1.1 | . | 99 | . | . | .
C=CCn1c(=NC(=O)C2COc3ccccc3O2)sc2cccc(OC)c21 (stereo not given) | i | 0.94 | . | 100 | . | . | .
COc1cccc(C2CC(C(F)(F)F)n3ncc(C(=O)NCC4CCCO4)c3N2)c1 (stereo not given) | i | 0.65 | -1.1 | 96 | -8 | 9 | 83
Cc1c(N=C2NC(=O)C(CC(=O)Nc3ccc(Cl)cc3)S2)c(=O)n(-c2ccccc2)n1C (stereo not given) | i | 1 | -2.0 | 115 | -4 | 60 | 93
Cc1ccc(/C=C(\C#N)C(=O)Nc2cccc3ncccc23)o1 | i | 1.1 | -1.2 | 85 | -7 | -3 | 106
O=C1c2ccccc2NC(c2cn[nH]c2-c2ccc(Cl)cc2)N1O (stereo not given) | i | 0.93 | 0.5 | 103 | 0 | 17 | 142
COCCNC(=O)CSc1cc(=O)n(C)c2cc(Cl)ccc12 | i | 0.88 | . | 96 | 1 | 27 | 133
O=C(COc1ccc2ccccc2c1)NN1C(=O)c2ccccc2C1=O | i | 0.94 | -1.4 | 101 | 0 | -70 | 156
CCCCC(=O)Nc1ccc(NC(=S)NC(=O)CCCCl)cc1OC | i | 0.87 | -1.1 | 109 | -5 | 0 | 82
COc1ccccc1-n1c(SCC(=O)N2CCCCC2)nc2cccnc21 | i | 1 | -1.2 | 108 | 5 | -12 | 141
Cn1c(N)c(C(=O)c2ccccc2)c(=O)n(C)c1=O | i | 1 | -3.1 | 95 | 0 | 33 | 64
CCN1CCN(C(=S)Nc2cccc([N+](=O)[O-])c2)CC1 | i | 1.1 | -1.6 | 103 | -16 | . | .
NNC(=O)c1oc2nc(-c3ccccc3)cc(-c3ccco3)c2c1N | ? | . | . | 96 | . | . | .
Cc1cccc(-n2nnnc2-c2cnccc2C(F)(F)F)c1C | i | 1.1 | . | 96 | . | . | .
CCOC(=O)c1sc(NC(=O)Nc2ccccc2Cl)cc1C | i | 0.62 | 13* | 109 | 9 | -8 | 114
Cc1ccsc1/C=N/NC(=O)c1ccc([N+](=O)[O-])cc1 | i | 1.1 | . | 105 | 0 | . | .
O=C(CC(Nc1ccccc1)C(=O)O)c1ccccc1 (stereo not given) | i | 0.87 | . | 96 | . | . | .
COc1ccccc1NC(=O)c1ccc(NC(=O)CSc2nncn2C)cc1 | i | 0.93 | -0.7 | 131 | 0 | . | .
COc1ccc(OC)c(CC(NC(C)=O)C(=O)NC2CCN(c3c(Cc4ccccc4)c(C)nc4ncnn34)CC2)c1 (stereo not given) | i | 1 | -1.5 | 100 | -4 | -25 | 115
Cc1c(N=Cc2nc3ccccc3n2C)c(=O)n(-c2ccccc2)n1C | i | 0.9 | -2.2 | 101 | -5 | 28 | 115
CN(C)c1ccc(/C=C2\CCCCC2=O)cc1 | i | 1.1 | -0.5 | 83 | 5 | . | .

Shown with tabs: part of the list above.
structure	HSV replic up	HSV replic up primary fold	GALR2 agonist	RGS16-Gao	PKD1 inh	INS promoter inh	INS promoter inh cell count
CCN1CCN(C(=S)Nc2cccc([N+](=O)[O-])c2)CC1	i	1.1	-1.6	103	-16	.	.
NNC(=O)c1oc2nc(-c3ccccc3)cc(-c3ccco3)c2c1N	?	.	.	96	.	.	.
Cc1cccc(-n2nnnc2-c2cnccc2C(F)(F)F)c1C	i	1.1	.	96	.	.	.
CCOC(=O)c1sc(NC(=O)Nc2ccccc2Cl)cc1C	i	0.62	13*	109	9	-8	114
Cc1ccsc1/C=N/NC(=O)c1ccc([N+](=O)[O-])cc1	i	1.1	.	105	0	.	.
O=C(CC(Nc1ccccc1)C(=O)O)c1ccccc1 (stereo not given)	i	0.87	.	96	.	.	.
COc1ccccc1NC(=O)c1ccc(NC(=O)CSc2nncn2C)cc1	i	0.93	-0.7	131	0	.	.
COc1ccc(OC)c(CC(NC(C)=O)C(=O)NC2CCN(c3c(Cc4ccccc4)c(C)nc4ncnn34)CC2)c1 (stereo not given)	i	1	-1.5	100	-4	-25	115
Cc1c(N=Cc2nc3ccccc3n2C)c(=O)n(-c2ccccc2)n1C	i	0.9	-2.2	101	-5	28	115
CN(C)c1ccc(/C=C2\CCCCC2=O)cc1	i	1.1	-0.5	83	5	.	.

Next part:
SMILES | HSV replic up | HSV replic up primary fold | GALR2 agonist | RGS16-Gao | PKD1 inh | INS promoter inh | INS promoter inh cell count
COc1ccc(CNC(=O)C2C3C=CC4(CN(Cc5cccnc5)C(=O)C24)O3)cc1 (stereo not given) | i | 0.97 | -1.1 | 102 | -4 | 19 | 95
O=C(N/N=C/c1ccc[nH]1)c1ccc2c(c1)OCO2 | i | 0.8 | . | 104 | -2 | . | .
CP(=O)(Nc1cc(Cl)ccc1Cl)c1nc2c(s1)CCCC2 (stereo not given) | i | 0.92 | . | 104 | . | . | .
CCN(CC)c1ccc(/C=N/Nc2nc(C)cc(C)n2)c(O)c1 | i | 0.74 | 0.7 | 164 | -3 | -21 | 88
CCCNC(=O)[C@H](Cc1c[nH]c2ccccc12)NC(=O)c1ccccc1Cl | i | 0.84 | 0.0 | 100 | 11 | -47 | 110
CCOC(=O)CN1C(=O)C(=O)c2cccc(C)c21 | i | 0.99 | -2.8 | 117 | -19 | . | .
Cc1ccc(-c2nnc(SCC(=O)N3CCN(c4ccccc4)CC3)o2)cc1 | i | 1 | -2.9 | 112 | -13 | . | .
O=C(Nc1ccc2oc(-c3ccncc3)nc2c1)c1ccccc1 | i | 1.2 | . | 99 | -2 | -25 | 94
O=S(=O)(Cc1cc(Oc2ccccc2)nc(-c2ccccc2)n1)c1ccccc1 | i | 0.94 | -0.2 | 108 | -13 | 15 | 76
O=C(C1=C(O)C(=O)N(Cc2cccnc2)C1c1ccccn1)c1cccs1 (stereo not given) | i | 1 | . | 105 | 0 | . | .
CCCCNC(=O)C1C2C=CC3(CN(Cc4ccccc4Cl)C(=O)C13)O2 (stereo not given) | i | 0.84 | -1.6 | 105 | 17 | -20 | 62
Nc1nc2n(n1)C(=O)CC(c1ccccc1[N+](=O)[O-])N2 (stereo not given) | i | 0.92 | . | 104 | -3 | 8 | 78
CCCn1c(=NC(=O)c2ccco2)c(C(=O)OCC)cc2c(=O)n3ccccc3nc21 | i | 1.1 | 2.3 | 61 | -6 | -9 | 220
CCc1cc2c(=O)[nH]cnc2s1 | i | 0.89 | -2.4 | 100 | -11 | 9 | 121
C=CCNC(=O)C12CCC(C)(C(=O)C1Br)C2(C)C (stereo not given) | . | . | 0.3 | 96 | 2 | 8 | 119
Cc1cc(C)n(CC(=O)N/N=C/c2ccco2)n1 | i | 0.94 | -1.1 | 96 | -12 | 14 | 106
CC1(C)S[C@@H]2[C@H](NC(=O)Cc3ccccc3)C(=O)N2[C@H]1C(=O)O | i | 0.64 | -0.1 | 87 | -10 | -10 | 96
O=c1cc(-c2ccccc2Cl)c2c([nH]1)CCC2 | i | 0.75 | -1.4 | 93 | 4 | . | .
CCOC(=O)c1c(/N=C/N(C)C)sc(/C=N/Nc2ccccc2)c1-c1ccccc1 | i | 1 | -1.0 | 102 | -5 | 25 | 71
CNC(=O)N(O)C1N(c2ccccc2)C(=S)SC1(C)C (stereo not given) | i | 0.95 | -2.7 | 102 | 3 | -44 | 128
COc1cccc(-c2csc(NC(=O)C3CC3)n2)c1 | i | 0.98 | -4.8 | 155 | -14 | . | .
CCCCOCCCNCC(=O)Nc1ccc(S(N)(=O)=O)cc1 | i | 0.96 | . | 100 | -3 | . | .
O=C1COc2ccc(C(=O)COC(=O)Cc3ccccc3F)cc2N1 | i | 0.99 | . | 101 | -11 | -33 | 111
Cc1ccc2oc(=O)cc(CN3CCC(C)CC3)c2c1 | i | 0.89 | -1.7 | 101 | 0 | -20 | 55
O=C(C1CCN(Cc2cc(Cl)ccc2O)CC1)N1CCN(Cc2ccccc2)CC1 | . | . | 0.7 | 103 | 5 | . | .

Remaining list, next part.
SMILES | HSV replic up | HSV replic up primary fold | GALR2 agonist | RGS16-Gao | PKD1 inh | INS promoter inh | INS promoter inh cell count
Cc1ccc(NC(=S)NCCN2CCOCC2)cc1 | i | 1 | -3.0 | 101 | -13 | 24 | 92
Cc1ccc(NC(=O)CCc2c(C)nc3ncnn3c2C)cc1 | i | 0.83 | -1.2 | 96 | 1 | 15 | 110
Cn1nc(-c2ccccc2)c(C(=O)NC(C(=O)O)c2ccccc2)c1Cl (stereo not given) | i | 1.1 | . | 85 | 6 | . | .
O=C(CSc1nc2ccccc2n1CCc1ccccc1)N1CCOCC1 | i | 1 | 0.1 | 100 | -5 | -6 | 102
C[N+]1(C2CCC3CCC2C3O)CCCC1 (stereo not given) | i | 1 | -0.9 | 111 | -3 | -53 | 63
CC(C)(C)OC(=O)N1CCCC1C(=O)N1CCc2ccccc21 (stereo not given) | i | 0.86 | -2.0 | 85 | 2 | -62 | 46
Cc1ccc(N2C(=O)NC(NC(=O)C(C)(C)C)(C(F)(F)F)C2=O)cc1C (stereo not given) | i | 1 | -1.2 | 102 | 7 | 7 | 158
Fc1ccc(-c2[nH]ncc2-c2nnnn2-c2ccccc2)c(F)c1 | i | 1 | 0.0 | 101 | -12 | . | .
COc1ccc(-c2nn(-c3ccccc3)cc2CO)cc1OC | i | 0.86 | -2.0 | 87 | -10 | . | .
O=C(COC(=O)c1cccnc1)Nc1ccccc1 | i | 0.95 | -1.9 | 109 | -6 | -180 | 82
Cc1ccc(C2N(c3cccc(Cl)c3)C(=O)C3CCCN32)o1 (stereo not given) | i | 0.98 | -1.8 | 74 | 8 | . | .
Cc1ccc(Nc2nc(N3CCOCC3)nc(N3CCOCC3)n2)cc1 | i | 0.73 | -0.2 | 100 | 4 | . | .
Cc1ncc([N+](=O)[O-])n1CC(=O)NC(C)(C)C | i | 0.81 | 0.2 | 101 | 16 | . | .
O=C(Nc1nc(N2C(=O)c3ccccc3C2=O)n(-c2ccccc2)n1)c1ccc(Cl)cc1 | i | 0.86 | -2.9 | 100 | -13 | 34 | 114
O=C(N/N=C/c1ccco1)c1cc(-c2cccs2)[nH]n1 | i | 1.2 | 0.6 | 104 | 6 | . | .
CCN(CC(=O)Nc1ccccc1OC)C(=O)C1CC2C=CC1C2 (stereo not given) | i | 0.83 | -3.0 | 97 | -13 | -42 | 125
Cc1nnsc1SCCNC(=O)c1c(F)cccc1F | i | 0.94 | -2.2 | 102 | -2 | -20 | 60
O=C1OCCC1Sc1nc2ccccc2n1-c1ccccc1 (stereo not given) | i | 0.97 | -3.5 | 105 | -9 | -6 | 113
CCOC(=O)c1ccc(NC(=S)NCCCN2CCN(C3CCCCC3)CC2)cc1 | i | 0.99 | . | 100 | -8 | -41 | 67
O=C(CN1CCN(Cc2ccc3c(c2)OCO3)CC1)N1CCc2[nH]c3ccc(F)cc3c2C1 | i | 0.85 | -0.3 | 96 | -6 | 31 | 47
CC(C)CN1CCN(Cc2cccn2-c2ccccn2)CC1CCO (stereo not given) | i | 1.1 | . | 98 | -3 | . | .
COc1ccc(C/C(C)=N/NC(=O)c2cc(C)oc2C)cc1 | i | 1 | -1.7 | 103 | -9 | -8 | 73
CCOC(=O)/C=C1\SCC(=O)N1CC(=O)NC(C)c1ccccc1 (stereo not given) | i | 1 | -0.4 | 110 | 2 | -8 | 110
O=C(Nc1ccc2c(c1)OCO2)c1ccc(S(=O)(=O)N2CCCC2)cc1 | i | 0.9 | . | 43 | 7 | . | .
COc1ccc(/C=N/Nc2nc3ccccc3[nH]2)c(OC)c1OC | i | 0.86 | . | 89 | . | . | .
CCOC(=O)Cn1cnc2c(nnn2-c2ccc(OC)cc2)c1=O | i | 0.95 | -1.0 | 81 | -5 | -67 | 148
O=C(O)CSc1nnc(CNc2ccccc2Cl)n1-c1ccccc1 | i | 1.1 | -1.2 | 98 | 12 | 20 | 132
CC1(C)CC(=O)C=C(NCCN2CCN(C(=S)NC3CCCCC3)CC2)C1 | i | 0.91 | . | 105 | . | . | .

Assay outcomes deposited in PubChem by several laboratories.
